Compound activity from PubChem.
A1 apoptosis 2 = A1 inhibition read as caspase activation | 24,000 tested, under 10 active | MEF A1-2A-BIM cells, caspase-Glo luminescence, 3 h; percent of clofoctol response, DMSO zero | AID 2465 | caspase activation, % (test concentration not listed); in the data active means caspase activation above about 5.9%;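 further: wells of about 30 µL received 50 nL stock; the first replicate is given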
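Material: A1-2A-BIM-expressing MEF cells. Buffer or medium: RPMI-1640 plus 10% FBS. Incubation: cells settled overnight, compound exposure 3 h at 37 °C, 5% CO2. Signal: Caspase-Glo 3/7 luminescence, 1 h at room temperature.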
* hit, by the source's call; & = joins results of further samples. Some of the compounds tested; the hit share may differ from the screen's.

SMILES | A1 apoptosis 2
C[C@@H]1CN([C@H](C)CO)C(=O)Cc2cc(NC(=O)Nc3ccc(F)cc3)ccc2O[C@H]1CN(C)S(=O)(=O)c1ccc(Cl)cc1 | -0.3
O=C(CCCCCC(=O)N/N=C/c1cc(Br)cs1)NO | 0.7
Cc1noc(C)c1NC(=O)N(C)C[C@H]1OCCCC[C@@H](C)Oc2ccc(NS(=O)(=O)c3cn(C)cn3)cc2C(=O)N([C@@H](C)CO)C[C@H]1C | -0.6
C[C@@H]1CN([C@@H](C)CO)C(=O)c2cc(NC(=O)Nc3ccc(C(F)(F)F)cc3)ccc2O[C@@H](C)CCCCO[C@@H]1CN(C)Cc1ccccc1 | 0.6
C[C@@H]1CN([C@H](C)CO)C(=O)c2cccc(NC(=O)c3cnccn3)c2O[C@@H]1CN(C)C(=O)Nc1ccc2c(c1)OCO2 | -1.2
COc1ccc(S(=O)(=O)Nc2ccc3c(c2)C(=O)N([C@@H](C)CO)C[C@H](C)[C@@H](CN(C)C(=O)Nc2ccc(C(F)(F)F)cc2)OCCCC[C@@H](C)O3)cc1 | -0.6
C[C@H]1CN([C@@H](C)CO)C(=O)Cc2cc(NS(C)(=O)=O)ccc2O[C@H]1CN(C)S(=O)(=O)c1cn(C)cn1 | 0.4
COc1ccc(NC(=O)Nc2ccc3c(c2)C(=O)N([C@@H](C)CO)C[C@H](C)[C@@H](CN(C)Cc2ccc4c(c2)OCO4)OCCCC[C@@H](C)O3)cc1 | -0.4
C[C@@H]1CN([C@H](C)CO)C(=O)Cc2cc(NC(=O)NC3CCCCC3)ccc2O[C@H]1CN(C)C(=O)Nc1cccc2ccccc12 | -1.1
C[C@H]1CN([C@@H](C)CO)C(=O)c2cccc(NS(=O)(=O)c3cccs3)c2O[C@@H]1CN(C)Cc1ccccc1 | 0.0
COc1ccc(S(=O)(=O)Nc2ccc3c(c2)C(=O)N([C@@H](C)CO)C[C@H](C)[C@@H](CN(C)S(C)(=O)=O)O3)cc1 | -0.1
Cc1noc(C)c1S(=O)(=O)N(C)C[C@@H]1OCCCC[C@H](C)Oc2ccc(NS(=O)(=O)c3ccc(Cl)cc3)cc2C(=O)N([C@@H](C)CO)C[C@H]1C | 0.7
O=C(C1=C[C@H](c2ccc3c(c2)OCO3)C[C@H](OCc2ccc(CO)cc2)O1)N1CCN(Cc2ccc3c(c2)OCO3)CC1 | -0.3&-0.5
CC(C)NC(=O)N(C)C[C@H]1Oc2ccc(NC(=O)CCC(F)(F)F)cc2CC(=O)N([C@@H](C)CO)C[C@H]1C | 0.7
C[C@@H](O)[C@@H](O)[C@@H](O)C/C=N/NC(=O)CCCCCC(=O)Nc1ccccc1O | -1.4
C[C@@H]1CN([C@H](C)CO)C(=O)c2cc(NC(=O)Cn3cnnn3)ccc2O[C@@H]1CN(C)S(=O)(=O)c1cccs1 | -0.1
C[C@@H]1CN([C@@H](C)CO)C(=O)c2cc(NC(=O)Cc3ccccc3)ccc2O[C@@H]1CN(C)Cc1ccc(C(F)(F)F)cc1 | 0.2
COc1ccc(CN(C)C[C@H]2OCCCC[C@@H](C)Oc3ccc(N(C)C)cc3C(=O)N([C@H](C)CO)C[C@H]2C)cc1 | 0.7
C[C@@H]1CN([C@@H](C)CO)C(=O)c2cccc(NC(=O)Nc3ccc4c(c3)OCO4)c2O[C@@H]1CN(C)Cc1ccc2c(c1)OCO2 | -0.2
Cc1cccc(S(=O)(=O)N(C)C[C@H]2OCc3cn(nn3)CCCC(=O)N([C@H](C)CO)C[C@H]2C)c1 | -0.2
C[C@@H]1CN([C@@H](C)CO)C(=O)c2cc(NC(=O)C3CC3)ccc2O[C@@H]1CN(C)Cc1ccc(C(=O)O)cc1 | 0.4
Cc1noc(C)c1NC(=O)Nc1ccc2c(c1)CC(=O)N([C@H](C)CO)C[C@@H](C)[C@@H](CN(C)C(=O)Nc1cccc3ccccc13)O2 | -1.3
C[C@H](CO)N1C[C@H](C)[C@H](CN(C)C(=O)Nc2cccc3ccccc23)Oc2ccc(NC(=O)Nc3ccc4c(c3)OCO4)cc2CC1=O | -0.1
C[C@@H]1CN([C@H](C)CO)C(=O)c2cccc(NC(=O)Nc3ccccc3)c2O[C@@H]1CN(C)S(=O)(=O)c1ccc(Cl)cc1 | -1.7
C[C@@H]1CCCCO[C@@H](CN(C)CC2CC2)[C@H](C)CN([C@@H](C)CO)C(=O)c2cc(NC(=O)C3CCCCC3)ccc2O1 | -0.8
C[C@@H]1CN([C@@H](C)CO)C(=O)c2cc(NS(=O)(=O)c3cccs3)ccc2O[C@@H]1CN(C)S(=O)(=O)c1cn(C)cn1 | -0.5
COc1ccc(S(=O)(=O)N(C)C[C@H]2Oc3ccc(NC(=O)Cc4ccccc4)cc3CC(=O)N([C@@H](C)CO)C[C@H]2C)cc1 | -1.6
C[C@@H]1CN([C@@H](C)CO)C(=O)Cc2cc(NC(=O)Cc3cn(C)c4ccccc34)ccc2O[C@H]1CN(C)Cc1ccc(Cl)c(Cl)c1 | -1.0
COc1ccc(NC(=O)Nc2ccc3c(c2)C(=O)N([C@@H](C)CO)C[C@@H](C)[C@H](CN(C)C(=O)Nc2ccc(OC)cc2)O3)cc1 | -0.1
C[C@H](CO)N1C[C@H](C)[C@H](CN(C)C(=O)Nc2ccc3c(c2)OCO3)Oc2c(NC(=O)c3cnccn3)cccc2C1=O | -1.3

A second format for 4 compounds above.
> COc1ccc(S(=O)(=O)N(C)C[C@H]2Oc3ccc(NC(=O)Cc4ccccc4)cc3CC(=O)N([C@@H](C)CO)C[C@H]2C)cc1
  A1 apoptosis 2: -1.6
> C[C@@H]1CN([C@@H](C)CO)C(=O)Cc2cc(NC(=O)Cc3cn(C)c4ccccc34)ccc2O[C@H]1CN(C)Cc1ccc(Cl)c(Cl)c1
  A1 apoptosis 2: -1.0
> COc1ccc(NC(=O)Nc2ccc3c(c2)C(=O)N([C@@H](C)CO)C[C@@H](C)[C@H](CN(C)C(=O)Nc2ccc(OC)cc2)O3)cc1
  A1 apoptosis 2: -0.1
> C[C@H](CO)N1C[C@H](C)[C@H](CN(C)C(=O)Nc2ccc3c(c2)OCO3)Oc2c(NC(=O)c3cnccn3)cccc2C1=O
  A1 apoptosis 2: -1.3

Next part
SMILES | A1 apoptosis 2
C[C@@H]1CCCCO[C@H](CN(C)C(=O)Nc2ccccc2)[C@@H](C)CN([C@H](C)CO)C(=O)c2cc(NS(=O)(=O)c3ccc(Cl)cc3)ccc2O1 | 0.5
Cc1noc(C)c1S(=O)(=O)Nc1ccc2c(c1)C(=O)N([C@@H](C)CO)C[C@H](C)[C@@H](CN(C)C(=O)C1CCCCC1)OCCCC[C@H](C)O2 | 1.2
C[C@@H]1CN([C@H](C)CO)C(=O)Cc2cc(NS(=O)(=O)c3ccccc3)ccc2O[C@H]1CN(C)Cc1ccc(C(F)(F)F)cc1 | -0.2
C[C@@H]1CN([C@@H](C)CO)C(=O)Cc2cc(NC(=O)Nc3ccc(C(F)(F)F)cc3)ccc2O[C@H]1CN(C)Cc1ccc(Cl)c(Cl)c1 | -1.0
COc1ccc(NC(=O)Nc2ccc3c(c2)CC(=O)N([C@@H](C)CO)C[C@H](C)[C@H](CN(C)C(=O)Nc2ccccc2)O3)cc1 | 1.6
Cc1ccc(S(=O)(=O)N(C)C[C@@H]2OCCCC[C@@H](C)Oc3ccc(NC(=O)Nc4ccc(F)cc4)cc3C(=O)N([C@@H](C)CO)C[C@@H]2C)cc1 | -0.5
C[C@@H]1CN([C@@H](C)CO)C(=O)c2cc(NC(=O)Cn3cnnn3)ccc2O[C@@H]1CN(C)C(=O)NC1CCCCC1 | -0.8
COc1ccc(NC(=O)N(C)C[C@H]2OCc3cn(nn3)CCCC(=O)N([C@@H](C)CO)C[C@@H]2C)cc1 | -1.9
C[C@H]1CN([C@@H](C)CO)C(=O)Cc2cc(NS(=O)(=O)c3cn(C)cn3)ccc2O[C@H]1CN(C)C | 2.0
C[C@H]1CN([C@@H](C)CO)C(=O)c2cccc(NC(=O)c3ccc(-c4nccs4)cc3)c2O[C@H]1CN(C)S(=O)(=O)c1cn(C)cn1 | 0.6
C[C@@H]1CCCCO[C@@H](CN(C)C(=O)Nc2ccc3c(c2)OCO3)[C@@H](C)CN([C@H](C)CO)C(=O)c2cc(NC(=O)C3CCCCC3)ccc2O1 | 0.8
COc1ccc([Si](C)(C)[C@@H]2[C@@H](CCO)O[C@]3(C(=O)N(Cc4ccccc4)c4ccc(N5CCCCC5=O)cc43)[C@H]2C)cc1 | 1.1
C[C@H]1CN([C@@H](C)CO)C(=O)c2cc(NS(=O)(=O)c3ccc(Cl)cc3)ccc2O[C@@H]1CN(C)Cc1ccncc1 | -1.0
C[C@H]1CN([C@@H](C)CO)C(=O)c2cccc(NC(=O)Nc3ccccc3)c2O[C@@H]1CN(C)C(=O)Nc1ccc(C(F)(F)F)cc1 | 0.7
C[C@@H]1CCCCO[C@@H](CN(C)C)[C@H](C)CN([C@@H](C)CO)C(=O)c2cc(NC(=O)Nc3cccc4ccccc34)ccc2O1 | -1.0
C=CCOC(=O)C1=C[C@@H](c2ccccc2)[C@H](CCCO)[C@@H](OCC)O1 | -0.6
C[C@H](CO)N1C[C@H](C)[C@@H](CN(C)CC2CCCCC2)Oc2ccc(NC(=O)CCCN(C)C)cc2CC1=O | 0.3
CC(C)NC(=O)Nc1ccc2c(c1)C(=O)N([C@@H](C)CO)C[C@H](C)[C@@H](CN(C)S(=O)(=O)c1cn(C)cn1)OCCCC[C@H](C)O2 | 0.3
C[C@@H]1CN([C@H](C)CO)C(=O)c2cc(NS(=O)(=O)c3ccccc3)ccc2O[C@@H](C)CCCCO[C@H]1CN(C)Cc1ccc(C(F)(F)F)cc1 | 0.4
CC(C)NC(=O)N(C)C[C@@H]1OCCCC[C@H](C)Oc2ccc(NC(=O)CCC(F)(F)F)cc2C(=O)N([C@@H](C)CO)C[C@@H]1C | 0.2
CNC[C@@H]1Oc2c(NC(=O)NC(C)C)cccc2C(=O)N([C@@H](C)CO)C[C@@H]1C | -0.1
Cc1noc(C)c1NC(=O)N(C)C[C@H]1Oc2c(NC(=O)c3nc4ccccc4s3)cccc2C(=O)N([C@@H](C)CO)C[C@@H]1C | -1.0
COc1ccc(NC(=O)N(C)C[C@H]2Oc3ccc(NC(=O)Nc4ccc(F)cc4)cc3CC(=O)N([C@@H](C)CO)C[C@@H]2C)cc1 | 2.1
O=C1C[C@@](C(=O)NCC(F)(F)F)(c2ccc([N+](=O)[O-])cc2)[C@@H](c2ccc(CO)cc2I)N1C1CCCCC1 | 1.0
COc1ccc(S(=O)(=O)N(C)C[C@H]2Oc3ccc(NC(=O)Nc4ccccc4)cc3CC(=O)N([C@@H](C)CO)C[C@H]2C)cc1 | 1.5
C[C@H](CO)N1C[C@H](C)[C@H](CN(C)CC2CCCCC2)Oc2ccc(NC(=O)CCCCCC(=O)Nc3ccccc3N)cc2C1=O | 1.3
C[C@@H]1CCCCO[C@@H](CN(C)S(=O)(=O)c2cccs2)[C@@H](C)CN([C@H](C)CO)C(=O)c2cc(NS(=O)(=O)c3cn(C)cn3)ccc2O1 | -0.1
CC(C)NC(=O)Nc1ccc2c(c1)C(=O)N([C@H](C)CO)C[C@@H](C)[C@@H](CN(C)S(=O)(=O)c1ccc(F)cc1)OCCCC[C@H](C)O2 | -0.7
C[C@@H]1CCCCO[C@@H](CN(C)CC2CC2)[C@@H](C)CN([C@H](C)CO)C(=O)c2cc(NC(=O)Cc3ccccc3)ccc2O1 | 0.8
C[C@H]1CN([C@@H](C)CO)C(=O)c2cc(NS(=O)(=O)c3cn(C)cn3)ccc2O[C@H]1CN(C)Cc1ccc(Oc2ccccc2)cc1 | 0.0
C[C@@H]1CN([C@@H](C)CO)C(=O)c2cc(N(C)C)ccc2O[C@H]1CN(C)S(=O)(=O)c1ccc(F)cc1 | -0.4
C[C@H]1CN([C@@H](C)CO)C(=O)CCCn2cc(nn2)CO[C@H]1CN(C)S(=O)(=O)c1cccs1 | 0.7
C[C@@H]1CN([C@H](C)CO)C(=O)c2cccc(NS(=O)(=O)c3cn(C)cn3)c2O[C@@H]1CN(C)CC1CC1 | -0.6
O=C(Nc1ccccc1)C1=C[C@H](c2ccc3c(c2)OCO3)C[C@H](OCCCCO)O1 | -1.0&-1.2
Cc1noc(C)c1S(=O)(=O)Nc1ccc2c(c1)C(=O)N([C@@H](C)CO)C[C@@H](C)[C@@H](CN(C)S(=O)(=O)c1cn(C)cn1)OCCCC[C@H](C)O2 | -0.9
Cc1noc(C)c1NC(=O)Nc1ccc2c(c1)C(=O)N([C@@H](C)CO)C[C@H](C)[C@H](CN(C)C(=O)Nc1ccc(C(F)(F)F)cc1)OCCCC[C@H](C)O2 | 1.8
Cc1noc(C)c1NC(=O)N(C)C[C@H]1Oc2ccc(NS(=O)(=O)c3ccc(F)cc3)cc2C(=O)N([C@@H](C)CO)C[C@@H]1C | 2.6
C[C@H](CO)N1C[C@H](C)[C@@H](CN(C)C(=O)Nc2ccc(F)cc2)Oc2c(NC(=O)c3cnccn3)cccc2C1=O | 0.3
C[C@@H]1CN([C@H](C)CO)C(=O)c2cccc(NC(=O)CCCCCC(=O)Nc3ccccc3N)c2O[C@H]1CN(C)C(=O)Nc1ccc(C(F)(F)F)cc1 | -1.1

2 neighbouring compounds out of the list so far, quoted:
SMILES | A1 apoptosis 2
C[C@H](CO)N1C[C@H](C)[C@@H](CN(C)C(=O)Nc2ccc(F)cc2)Oc2c(NC(=O)c3cnccn3)cccc2C1=O | 0.3
C[C@@H]1CN([C@H](C)CO)C(=O)c2cccc(NC(=O)CCCCCC(=O)Nc3ccccc3N)c2O[C@H]1CN(C)C(=O)Nc1ccc(C(F)(F)F)cc1 | -1.1
